# Screening results as filed in PubChem BioAssay.
# MT1-MMP act inh – inhibitors of human MT1-MMP activation. HT1080 RFP-PRO-GFP cells, GFP/RFP ratio fluorescence, overnight; percent of plate control window, DMSO zero. actives 0.061% (n = 360,000). P50281. GFP/RFP ratio change, % at 20 µM;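 active = GFP/RFP ratio change of at least 30% with cell ATP level not reduced by more than half and red fluorescence within 50% of control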; also: strong numbers were not always called active
#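 Assay system: HT1080 cells carrying an RFP-PRO-GFP reporter | Dosing: Single dose of 20 µM compound, 1% DMSO final | Incubation: Cells overnight before dosing, compound overnight, 37 °C, 5% CO2 | Evaluation: GFP/RFP fluorescence ratio | Control set: DMSO and RFP-L50D-GFP cell wells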
# HIV Env fusion – HIV envelope-mediated fusion inhibition; HeLa-JRFL Env/CEM21 cell fusion, luciferase; inhibition, % at 12.3 µM; actives 1.1% (n = 360,000);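 active = mean replicate inhibition score of at least 50 and every replicate individually at or above 50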;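 also: 0% = plate neutral controls and 100% = maraviroc near 300 nM; one replicate is shown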
# MT1-MMP act inh RFP – recorded beside MT1-MMP act inh, whose call it bears; RFP signal change, %; measured here: RFP expression control read;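 0 = vehicle wells; hits needed this value within 50% of zero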
# Active calls of the source: *; i = inactive; [ ] = remark or other dose. A portion of the library (hit frequency here may not be typical).
SMILES,MT1-MMP act inh,MT1-MMP act inh RFP,HIV Env fusion
COC(=O)[C@@]1(Cc2ccc(OC)cc2)[C@H]2c3cc(C(=O)N4CCCC4)n(Cc4ccsc4Br)c3C[C@H]2CN1C(=O)c1ccccc1,-20,-20,-143
COc1ccc(NC(=O)C(c2ccncc2)n2c(=O)c(-c3ccccc3)nc3ccccc32)cc1 (stereo not drawn),-3,-2,0
O=S1(=O)N[C@@H](Cc2ccccc2)COc2cccc(N3CCSCC3)c21,2,2,28
O=C1C(=Cc2ccc(Cl)cc2)CCc2ccccc21,1,-3,4
Cn1c(=O)c2c(nc(C3CC4C5CCC(C5)C4C3)n2C)n(C)c1=O (stereo not drawn),-7,-12,-5
CC1(C)OC(=O)C2=C(C[C@@H](CCc3ccccc3)O[C@@H]2c2ccc(Cl)cc2)O1,1,-6,-16
CCOC(=O)[C@]12CCC=C1N(Cc1ccc(Cl)cc1Cl)C(=O)[C@H](CC(=O)NCCCOC)C2,1,-1,5
Cc1ccc(S(=O)(=O)N2CC3C(=O)C[C@@H](c4ccccc4)N(S(=O)(=O)c4ccccc4Cl)C3CC2c2ccccc2)cc1 (stereo partly drawn),9,1,-22
CC(=NNc1nc2ccccc2s1)c1ccncn1,5,-2,-30
O=C1c2cc3c(cc2CCC1c1ccc2c(c1)OCO2)OCO3 (stereo not drawn),4,-1,-15
CCOc1ccc(NC2=CC(=O)C(=O)c3ccccc32)cc1,11,-19,-9
Cc1ccc(S(=O)(=O)N2C3CCCCC3O[C@H]2CC(=O)c2cccc3ccccc23)cc1 (stereo partly drawn),4,2,4
COC(=O)[C@]12CCCCC=C1N(CCC1=CCCCC1)C(=O)[C@H](CC(=O)N1CCN(C(=O)C3CC3)CC1)C2,1,1,2
CCCCn1nnnc1-c1nc2ccccc2[nH]c1=O,1,4,21
CC1(C(=O)Nc2ccc3c(c2)OCCO3)CN(S(C)(=O)=O)CC(=O)N1CCCn1ccnc1 (stereo not drawn),-1,2,7
Cc1ccc(-c2nc3ccc(C)cn3c2Cc2ccccn2)cc1,3,3,-7
CN(C(=O)c1cc2c(cc1Br)OCO2)c1cccc2ccccc12,0,4,25
CC(C)NC(=O)N1Cc2cc(C(=O)NC3CCCCC3)nc(-c3cccc(-c4cccnc4)c3)c2[C@@H]1CCO,-3,-4,35
CC(C)C[C@@H](CN1CCC[C@H]1CN1C(=O)C(=O)NC[C@@H]1Cc1ccc(O)cc1)N1C[C@H](Cc2ccccc2)N(CC2CCCCC2)C(=O)C1=O,-5,0,-143
Cc1csc(N2C(=O)C3C4CCC(O4)C3C2=O)n1 (stereo not drawn),5,7,-2
CCO[C@H]1C[C@@H](c2ccc(CC)cc2)N(S(=O)(=O)c2ccc(C)cc2)C2CC(c3ccc(CC)cc3)N(S(=O)(=O)c3ccc(C)cc3)CC21 (stereo partly drawn),1,-1,28
CCCCn1nnnc1C1(C)CCC(=O)N1Cc1cccnc1 (stereo not drawn),3,6,2
COc1ccc(N(CC(=O)NC2CC3CCC2C3)S(=O)(=O)c2ccc(C)cc2)cc1Cl (stereo not drawn),11,-5,8
COc1cc(C(=O)NC2CC2)cc(OC)c1OC,5,4,-2
CN(C)C(=O)c1cc2c(c(-c3cccc(-c4ccccc4F)c3)n1)[C@@H](CCO)N(S(C)(=O)=O)C2,3,7,-11
# Next section:
SMILES,MT1-MMP act inh,MT1-MMP act inh RFP,HIV Env fusion
NC(c1csc(Nc2ncccn2)n1)C1CCCCC1 (stereo not drawn),1,5,-18
NNc1cccc(C=Cc2ccccc2)cc1=O,-5,6,-36
O=C(OC1CC2CC1[C@H]1CCCCN1C2=O)N1CCCCC1 (stereo partly drawn),5,9,-18
Cn1c(Oc2cccnc2CN2CCCC2)nc2cc(-c3cccc(C(F)(F)F)c3)sc2c1=O,0,1,-23
CCOC(=O)[C@]12CCC=C1N(Cc1cccc3ccccc13)C(=O)[C@H](CC(=O)N1CCN(C(=O)C3CC3)CC1)C2,3,3,-61
CC(=O)N(O)c1ccc(C=Cc2ccccc2)cc1,0,1,-45
C=C[C@@H](c1ccccc1)[C@](C)(O)C(=O)O,5,5,-9
CCOC(=O)C1=C(Nc2ccc(OC)cc2)C(N)=NC1=N,21,4,-484
COc1ccc2cc(C#CC3=CC(=O)C[C@H](c4ccc(F)cc4)C3)ccc2c1,-1,6,25
O=C1CCCN1C1CCN(Cc2ccccc2)S(=O)(=O)N1 (stereo not drawn),4,7,6
Cc1[nH]c(=O)[nH]c(=O)c1NC(=O)c1ccccc1[N+](=O)[O-],4,5,6
O=C(Nc1c(-c2ccccc2)[nH][nH]c1=O)c1cnccn1,0,1,24
N#Cc1ccc(C(C(=O)NC2CCCCC2)n2c(=O)c(-c3cc4ccccc4[nH]3)nc3ccccc32)cc1 (stereo not drawn),-16,-9,21
Cc1ccc(S(=O)(=O)N2C(c3ccc(Cl)c(Cl)c3)CC=C(C(=O)O)C2c2cccc(Cl)c2)cc1 (stereo not drawn),-3,0,-1
O=c1ccc2ccccc2c2ccccc12,4,-12,-3
Nc1nc2ncccc2cc1C(=O)NCCc1cccs1,-4,-19,-9
CC(=O)/C=C1\OCc2ccccc21,14,9,-24
C=CCn1c(=O)/c(=C/c2ccsc2)s/c1=C(\C#N)C(=O)NCCN1CCOCC1,-4,0,24
Cc1cccc(C)c1NC(=O)C(c1ccc(C(F)(F)F)cc1)n1c(=O)c(-c2ccco2)nc2ccccc21 (stereo not drawn),-11,-3,-19
Cc1cc(C)nc(NN=CC2=C(N3CCOCC3)/C(=C/c3ccc(Cl)cc3)CC2)n1,-3,-6,6
CCCCn1nnnc1C(c1ccccc1)N1CCN(CCN2CCOCC2)CC1 (stereo not drawn),2,4,-33
O=C(O)c1ccccc1-c1ccc([N+](=O)[O-])cc1Cl,-6,4,-4
O=C(CC(=O)c1ccccn1)c1ccccc1,4,2,-51
CC(CCC(=O)NN)C1CCC2C3CCC4CC(O)CCC4(C)C3CCC12C (stereo not drawn),-1,3,7
CC(=NNc1ccc2ccccc2n1)c1ccccc1O,1,-5,18
# (more compounds)
SMILES,MT1-MMP act inh,MT1-MMP act inh RFP,HIV Env fusion
CC(C)(C)C(=O)Nc1ccc(C(=O)COC(=O)C2=COCCO2)cc1,-1,1,1
CCN(CC)CCSc1nc2c([nH]1)c(=S)n(C)c(=O)n2C,1,2,-14
CC(C)C[C@@H]1COc2cccc(N3CCSCC3)c2S(=O)(=O)N1,6,2,-72
COC(=O)c1c(N)[nH]c(C(=O)c2ccccc2)c1-c1ccc(Br)cc1,4,-2,3
O=C(OCC1COC(c2ccccc2)(c2ccccc2)O1)c1ccccc1 (stereo not drawn),-1,0,5
CS(=O)(=O)c1cccc(C(=O)OCC(=O)c2ccc3c(c2)OCCO3)c1,-6,0,7
CCCCCc1c(-c2cccc(Cl)c2)ncn1CCc1ccccc1OC,2,-1,-13
COC(=O)C1(C(=O)OC)c2ccccc2N(S(=O)(=O)c2ccc(C)cc2)C1CC(C)=O (stereo not drawn),2,6,-6
COc1ccc2sc(-c3ccccc3OC)c(-c3ccc(SC)cc3)c2c1,5,0,15
COc1ccc(CCC(=O)N2c3ccccc3N=C(c3ccc4c(c3)OCO4)C2C(=O)Nc2ccc(OC)cc2)cc1 (stereo not drawn),-6,-3,-8
COc1ccc2c(c1)C(O)C(CO)C(C(=O)O)C2 (stereo not drawn),1,3,-6
Cc1cn(C2CCCCO2)c(=O)nc1NO (stereo not drawn),-1,2,-4
CCOC(=O)C1=CCN(S(=O)(=O)c2ccc(F)cc2)C1c1ccc(F)cc1 (stereo not drawn),1,3,-14
O=c1[nH]c(=S)[nH]c2c1C(c1cccc(C(F)(F)F)c1)OC(CCc1ccccc1)C2 (stereo not drawn),3,-7,-5
O=C(O)C(=Cc1cccc([N+](=O)[O-])c1)c1ccccc1,4,6,-16
COc1cc(C2c3[nH]c4ccccc4c3CC3COC(=O)N32)cc(OC)c1O (stereo not drawn),15,3,-108
Cc1ccc(S(=O)(=O)N2C3CCCCC3O[C@H]2CC(=O)OCc2ccccc2)cc1 (stereo partly drawn),-2,-7,24
CC1(c2nnnn2-c2ccc3c(c2)OCCO3)CCC(=O)N1C1CCN(Cc2ccccc2)CC1 (stereo not drawn),4,5,-10
CSCCC(C(=O)NCc1ccccc1)n1c(C2CCN(C(C)=O)CC2)nc2ccccc21 (stereo not drawn),4,8,-18
CCOC(=O)c1c(NC(=O)COC(=O)CCNS(=O)(=O)c2ccccc2)sc(C(=O)N(C)C)c1C,-4,-2,-174
C#CCNC(=O)C[C@@H]1C[C@@]2(C(=O)OCC)CCC=C2N(Cc2cccc3ccccc23)C1=O,3,2,-96
NNC(=O)Cc1cccc2ccc(Cl)cc12,-3,3,10
Cc1cc(C(F)(F)F)c2c(N)c(C(=O)NCc3ccc(Cl)cc3)sc2n1,-5,-4,2
NC(c1ccccc1)c1cccs1 (stereo not drawn),3,7,i
COC(=O)[C@@]12C[C@@H](CC(=O)NCCCCc3ccccc3)C(=O)N(Cc3ccc4c(c3)OCO4)C1=CCC(C)(C)C2,-9,-12,3
# New compounds follow
SMILES,MT1-MMP act inh,MT1-MMP act inh RFP,HIV Env fusion
Cc1ccccc1-c1cnc(C(O)c2ccc(F)c(F)c2)[nH]1 (stereo not drawn),2,-1,-12
CCOC(=O)c1c(C)[nH]c(C(=O)OCc2nc3ccsc3c(=O)[nH]2)c1C,5,2,-34
COC(=O)C1=CN(c2ccccc2OC)C(N)=C(C#N)C1c1cccc([N+](=O)[O-])c1 (stereo not drawn),4,-8,-126
CCCNC(=O)c1cc2c(c(-c3cccc(-c4cc5ccccc5o4)c3)n1)[C@H](CCO)N(C(=O)NC(C)C)C2,-13,-7,10[16.7 µM]
CN(C)C1CN(Cc2cn(Cc3ccc(C(F)(F)F)cc3)nn2)S(=O)(=O)C1 (stereo not drawn),6,6,2
COC(=O)CC1CC2(C(=O)OC)c3[nH]c4ccccc4c3CCN2C1=O (stereo not drawn),3,3,10
CSCCC(c1nc2ccccc2[nH]1)n1c(-c2ccc(C)cc2)nc2ccccc21 (stereo not drawn),-14,-13,-12
COc1ccc(NC(=O)C2(C)CCN2Cc2ccc(OC(C)C)cc2)cc1OC (stereo not drawn),4,0,i
COc1ccc(C(C(=O)NCc2ccccc2)n2c(=O)c(-c3cc4ccccc4[nH]3)nc3ccccc32)cc1 (stereo not drawn),-3,0,24
CCCCCCCCN1C(=O)[C@H](CC(=O)NCc2ccccc2)C[C@@]2(C(=O)OC)CC(C)(C)CC=C12,-6,-12,20
O=c1[nH][nH]c2c1[C@H](c1ccc(Cl)cc1)O[C@H](C1CCCCC1)C2,10,8,16
CC(C)C[C@H]1CN(CCCC[C@H]2CNC(=O)C(=O)N2CCC2CCCCC2)C(=O)C(=O)N1CCc1ccccc1,6,-5,-95
CC(=O)c1ccc(NC(=O)c2ccc(-n3cnnn3)cc2)cc1,0,1,-10
CCOC(=O)C(=Cc1ccc(N(C)C)cc1)C(=O)c1ccccc1,-5,-12,-14
CC(C)CC1C(=O)N(Cc2cn(Cc3ccco3)nn2)CCS(=O)(=O)N1Cc1ccc(-c2ccc(Cl)cc2)cc1 (stereo not drawn),-1,-1,-44
CCCCCCCCN1C(=O)[C@H](CC(=O)NCCCC)C[C@@]2(C(=O)OC)CC(C)(C)CC=C12,-16,-20,-4
Cc1ccc(S(=O)(=O)N2C3CCCCC3O[C@H]2CC(=O)Oc2ccccc2)cc1 (stereo partly drawn),5,3,16
COc1cccc(CNc2nc3cc(-c4ccsc4)sc3c(=O)n2C)c1OC,7,-26,-16
CC1(c2nnnn2Cc2ccccc2)CCC(=O)N1Cc1ccc(F)cc1 (stereo not drawn),2,3,-9
CCCCCC(=O)N1C[C@@H](n2cc(-c3ccc(F)cc3)nn2)[C@H](O)C[C@@H]1c1ccc(OC)cc1,5,-2,-8
COC(=O)[C@@]12C[C@@H](CC(=O)NCCCN3CCCC3=O)C(=O)N(Cc3ccccc3)C1=CCC(C)(C)C2,1,-1,13

# Compounds from the list above that have a thiophene ring, fused or not (ten):
SMILES,MT1-MMP act inh,MT1-MMP act inh RFP,HIV Env fusion
COC(=O)[C@@]1(Cc2ccc(OC)cc2)[C@H]2c3cc(C(=O)N4CCCC4)n(Cc4ccsc4Br)c3C[C@H]2CN1C(=O)c1ccccc1,-20,-20,-143
Cn1c(Oc2cccnc2CN2CCCC2)nc2cc(-c3cccc(C(F)(F)F)c3)sc2c1=O,0,1,-23
Nc1nc2ncccc2cc1C(=O)NCCc1cccs1,-4,-19,-9
C=CCn1c(=O)/c(=C/c2ccsc2)s/c1=C(\C#N)C(=O)NCCN1CCOCC1,-4,0,24
COc1ccc2sc(-c3ccccc3OC)c(-c3ccc(SC)cc3)c2c1,5,0,15
CCOC(=O)c1c(NC(=O)COC(=O)CCNS(=O)(=O)c2ccccc2)sc(C(=O)N(C)C)c1C,-4,-2,-174
Cc1cc(C(F)(F)F)c2c(N)c(C(=O)NCc3ccc(Cl)cc3)sc2n1,-5,-4,2
NC(c1ccccc1)c1cccs1 (stereo not drawn),3,7,i
CCOC(=O)c1c(C)[nH]c(C(=O)OCc2nc3ccsc3c(=O)[nH]2)c1C,5,2,-34
COc1cccc(CNc2nc3cc(-c4ccsc4)sc3c(=O)n2C)c1OC,7,-26,-16

# Just HIV Env fusion, for 3 of the compounds above:
molecule	HIV Env fusion
CCCCCCCCN1C(=O)[C@H](CC(=O)NCCCC)C[C@@]2(C(=O)OC)CC(C)(C)CC=C12	-4
Cc1ccc(S(=O)(=O)N2C3CCCCC3O[C@H]2CC(=O)Oc2ccccc2)cc1 (stereo partly drawn)	16
COc1cccc(CNc2nc3cc(-c4ccsc4)sc3c(=O)n2C)c1OC	-16
